Yeast UUG start: modulators of yeast start codon fidelity, primary screen, whole organism, S. cerevisiae, single point, plate reader; activity score, % at 18.7 µM; AID 602363, 2012; S. cerevisiae UUG-firefly luciferase reporter, luminescence/redox ratio; 350,000 compounds, 0.13% hits;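 active means replicate mean at a twofold rise or more, about +100% in these data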;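 further: firefly luciferase made from a UUG start codon reports start codon fidelity; reporter light over untreated wells divided by growth signal over untreated wells; some hits fall short of that in this replicate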
eIF4H FP inh: human eIF4H binding inhibitors, primary screen, translation initiation inhibitor project, biochemical, uHTS, fluorescence polarization; Eukaryotic translation initiation factor 4H (Homo sapiens), Q15056; eIF4H fluorescence polarization binding assay; inhibition, % at 35 µM; 290,000 compounds, 0.94% hits;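 active means 50% or more with normal probe brightness, or confirmed in later tests; inconclusive means above 50% with abnormal brightness, or retests that disagree; inactive means below 50% or failed in later tests; about a fifth of its hits are not listed in these tables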;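 further: calls also rest on retests at 20 µM and on dose response follow-up; 0% = protein and probe with vehicle and 100% = probe without protein; strong numbers were not always called active; many hits fall short of the cut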
CSC inhib: cancer stem cell viability inhibitors, primary screen, luminescence. cancer stem cell-like cells viability. inhibition, % at 7.5 µM. 300,000 compounds, 1.1% hits. AID 2717, 2010;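 active means mean at 75% or more and at least half the replicates too; inconclusive means mean and replicates disagree; tested in HMLE shEcad cells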;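 further: 0% = median of negative and 100% = median of positive control wells; the first replicate is given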
Env fusion inh: inhibitors of HIV-1 Env-driven cell-cell fusion, primary screen, HeLa-JRFL effector, CEM21 target cells, luciferase; AID 651610, 2012; inhibition, % at 12.3 µM; 360,000 compounds, 1.1% hits;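 active means mean replicate inhibition score of at least 50 and every replicate individually at or above 50; inconclusive means only one of the two criteria met; inactive means mean below 50 and not all replicates reaching 50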;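 further: 0% = plate neutral controls and 100% = maraviroc near 300 nM; one replicate is shown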
PABP polyA inh: PABP poly(A) RNA binding inhibitors, primary screen, biochemical, fluorescence polarization, uHTS. Polyadenylate-binding protein 1 (Homo sapiens), P11940. inhibition, % at 35 µM. 290,000 compounds, 1% hits;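 active means 50% or more with normal probe brightness, or confirmed in later tests; inconclusive means above 50% with abnormal brightness, or retests that disagree; inactive means below 50% or failed in later tests; about a fifth of its hits are not listed in these tables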;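 further: calls also rest on retests at 20 µM and on dose response follow-up; controls were probe without protein and protein plus probe with vehicle; some compounds called inactive have numbers as strong as hits; many hits fall short of the cut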
Target sequence (P11940 whole entry, looked up): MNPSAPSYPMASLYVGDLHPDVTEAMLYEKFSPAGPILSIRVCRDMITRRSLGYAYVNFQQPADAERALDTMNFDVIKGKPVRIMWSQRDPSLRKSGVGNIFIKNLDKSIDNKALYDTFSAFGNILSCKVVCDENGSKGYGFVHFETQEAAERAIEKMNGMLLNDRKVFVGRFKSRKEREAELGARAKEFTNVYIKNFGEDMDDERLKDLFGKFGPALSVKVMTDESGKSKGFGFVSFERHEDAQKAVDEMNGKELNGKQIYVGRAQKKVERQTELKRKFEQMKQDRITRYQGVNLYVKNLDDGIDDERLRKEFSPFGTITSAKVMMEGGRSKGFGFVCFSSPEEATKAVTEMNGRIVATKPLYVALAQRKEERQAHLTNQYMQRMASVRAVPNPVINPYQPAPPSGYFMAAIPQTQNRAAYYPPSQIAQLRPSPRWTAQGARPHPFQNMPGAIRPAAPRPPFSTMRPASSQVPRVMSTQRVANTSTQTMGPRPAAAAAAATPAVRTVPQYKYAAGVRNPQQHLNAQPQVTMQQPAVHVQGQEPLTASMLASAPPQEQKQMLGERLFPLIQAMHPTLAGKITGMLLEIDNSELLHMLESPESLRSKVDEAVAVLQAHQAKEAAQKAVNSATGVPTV
Rce1 inh: yeast Rce1p protease inhibitors, primary screen, biochemical, fluorescence, cell-free homogeneous. CAAX prenyl protease 2 (Saccharomyces cerevisiae (strain ATCC 204508 / S288c)), Q03530. yeast membranes, quenched prenylated peptide cleavage fluorescence. 290,000 compounds, 0.27% hits. calls only;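 active means fall in fluorescence gain of 50% or more versus controls, with final raw signal at or below 3038400; inconclusive means same 50% fall but final raw signal above 3038400; inactive means fall in fluorescence gain under 50%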;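 further: plate controls were neutral control wells for no effect and wells lacking membranes for full effect; tested at 10 µM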
MT1-MMP act inh: blockers of MT1-MMP proenzyme processing, primary screen, HT1080 RFP-PRO-GFP cells, GFP/RFP fluorescence. Matrix metalloproteinase-14 (Homo sapiens), P50281. AID 651647, 2012. 360,000 compounds, 0.061% hits. GFP/RFP ratio fluorescence, overnight; percent of plate control window, DMSO zero. GFP/RFP ratio change, % at 20 µM;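 active means GFP/RFP ratio change of at least 30% with cell ATP level not reduced by more than half and red fluorescence within 50% of control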; further: strong numbers were not always called active
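Test system: HT1080 RFP-PRO-GFP cells; Benchmarks: DMSO and RFP-L50D-GFP cell wells; Timing: cells overnight before dosing, compound overnight, 37 °C, 5% CO2; Compound: one 20 µM compound dose with 1% DMSO; Read-out: GFP/RFP fluorescence ratio.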
eIF4H FP inh retest: further read-out of eIF4H FP inh, marked with its call; inhibition, %; compound at 20 µM; confirmation average;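 mean of two retest wells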
PABP polyA inh retest: further read-out of PABP polyA inh, marked with its call; inhibition, %; compound at 20 µM; confirmation repeats;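 mean of two retest wells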
MT1-MMP act inh RFP: further read-out of MT1-MMP act inh, marked with its call; RFP signal change, %; measured here: RFP expression control read;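 0 = vehicle wells; hits needed this value within 50% of zero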
* = called active by the depositor; i = inactive; ? = inconclusive; . = not tested or not shown. Some of the compounds tested. The share of hits here may be higher or lower than overall.

SMILES | Yeast UUG start | eIF4H FP inh | CSC inhib | Env fusion inh | PABP polyA inh | Rce1 inh | MT1-MMP act inh | MT1-MMP act inh RFP | others
Cc1ccc(S(=O)(=O)NCC(c2ccco2)N2CCOCC2)cc1 (stereo not drawn) | . | -2 | -10 | -41 | 12 | i | 2 | 4
Cc1ccc(CCNC(=O)c2cc(-c3ccncc3)nc3ccc(S(=O)(=O)N4CCOCC4)cc23)cc1 | -4 | 6 | -1 | 3 | -3 | i | -7 | -7
Cc1ccc(S(=O)(=O)CCc2nc3ccccc3[nH]2)cc1C | . | 48 | -7 | -9 | 5 | i | 3 | 7
Cc1csc(SCC(=O)Nc2cc(S(=O)(=O)N(C)C)ccc2C)n1 | -1 | . | -2 | -6 | . | i | 4 | -4
C[C@]12CCC3c4ccc(O)cc4CCC3C1CC/C2=N\N (stereo partly drawn) | 2 | . | 5 | 7 | . | i | 0 | -3
COc1ccccc1/C=C/C(=O)OCC(=O)NC(=O)NC1CCCC1 | 0 | . | 4 | -5 | . | . | -1 | 3
CCCc1nn(C)c(C(=O)Nc2cccc(CC)c2)c1Cl | -1 | -6 | -7 | . | 4 | i | 8 | -1
COc1ccc(C(NC(=O)CN2CCCCCC2)c2ccc(OC)cc2)cc1 | -6 | -2 | 1 | 2 | 6 | i | 2 | 6
CCCc1cc(=O)n2[nH]cnc2n1 | -16 | 2 | -6 | -14 | 2 | i | -3 | -9
O=C(O)CC/C(=N\Nc1ccc(S(=O)(=O)N2CCOCC2)cc1[N+](=O)[O-])c1cccs1 | . | 2 | 16 | -3 | 6 | i | 15 | -5
Cc1ccc(S(=O)(=O)Nc2c(C)n(C)n(-c3ccccc3)c2=O)cc1C(=O)OC(C)C(=O)c1ccccc1 (stereo not drawn) | 0 | . | . | 23 | . | . | 0 | 4
O=C(COc1ccc(Br)cc1)N(Cc1ccccc1)c1ccccn1 | -3 | -1 | 4 | . | -4 | i | 2 | -2
O=C(CSc1ccccn1)c1ccc2c(c1)OCO2 | -26 | 0 | -9 | -111 | 10 | i | 0 | -1
Cc1ccc(S(=O)(=O)NN2C(=O)c3ccccc3NC2c2cccc(O)c2)cc1 (stereo not drawn) | . | -3 | . | 3 | 10 | i | 1 | -2
Cc1onc(-c2c(Cl)cccc2Cl)c1C(N)=S | . | -3 | -11 | 11 | -6 | i | -1 | 3
CCCCN1C(=O)c2ccc(C(=O)N(C)CC(=O)Nc3ccc(OCC)c(OCC)c3)cc2C1=O | -8 | . | -20 | -10 | . | . | 3 | 0
O=C(O)Cn1cc(CN2CCOCC2)c2ccccc21 | -10 | 0 | -13 | -1 | 4 | i | -4 | 1
Cc1ccc(S(=O)(=O)NC2(C(F)(F)F)NC(=O)N(C)C2=O)cc1 (stereo not drawn) | -14 | -3 | -12 | . | 10 | i | 1 | 4
O=C(c1cccnc1)N1CCN(Cc2ccc3c(c2)OCO3)CC1 | -14 | -10 | -5 | -18 | 2 | i | 6 | 4
Nn1cc(-c2ccccc2)nc1SCC(=O)N1CCN(S(=O)(=O)c2ccc3ccccc3c2)CC1 | . | -11 | -3 | . | 7 | i | 5 | -7
COc1ccc(-c2nc(C#N)c(NC(C)c3ccccc3)o2)cc1OC (stereo not drawn) | -20 | -4 | 44 | . | 1 | ? | 5 | -3
Cc1ccc(S(=O)(=O)N2CCN(C(C)C(=O)Nc3ccccc3-c3ccccc3)CC2)cc1 (stereo not drawn) | . | 7 | 14 | -12 | -4 | i | -8 | -8
CC1CCN(CC(=O)Nc2nc(-c3ccccc3)cs2)CC1 | -21 | -3 | -15 | 1 | -2 | i | 3 | -2
Cc1cc(S(=O)(=O)N2CCC(N3CCCCC3)CC2)ccc1-n1cnnn1 | . | -6 | 14 | . | -3 | i | 4 | 4
O=c1[nH]c(N2CCOCC2)nc2c1CCCC2 | -21 | -8 | -6 | ? | -7 | i | -1 | 5

Next entries
SMILES | Yeast UUG start | eIF4H FP inh | CSC inhib | Env fusion inh | PABP polyA inh | Rce1 inh | MT1-MMP act inh | MT1-MMP act inh RFP | others
C=CCNC(=O)c1sc(=S)n(-c2ccc(C(=O)OCC)cc2)c1N | . | 0 | -1 | . | 0 | i | -1 | -1
CCc1nnc(NC(=O)C2CCCN2C(=O)Nc2ccccc2)s1 (stereo not drawn) | . | 1 | -4 | -6 | -5 | i | -2 | 4
Cn1ccc(-c2ccccc2)c(C#N)c1=O | -8 | 5 | 0 | -25 | -4 | i | 0 | -1
CCCCNC(=O)Cn1cnc2c(cnn2-c2ccc(C)cc2)c1=O | 0 | -7 | -12 | -8 | 1 | i | -4 | -3
CC(C)(C)NC(=O)C(c1ccccn1)N(C(=O)c1csnn1)C1CCCCC1 (stereo not drawn) | . | -9 | . | -5 | -5 | i | 0 | 7
COc1ccc2[nH]cc(CCNC(=O)Cc3ccc(F)cc3)c2c1 | -23 | 1 | -13 | 8 | -11 | i | 1 | 1
COCC(C)n1c(C)cc(C(=O)COC(=O)c2c(C)nn(-c3ccccc3)c2C)c1C (stereo not drawn) | 6 | 11 | 32 | -11 | 6 | i | -6 | -3
CC1(C(=O)OCC(=O)c2c[nH]c3ccccc23)CC1(Cl)Cl (stereo not drawn) | 12 | -12 | -1 | -84 | 2 | i | 5 | 7
COc1cccc(Nc2nc(CN3CCOCC3)nc3sc4c(c23)CCCC4)c1 | -2 | 6 | -1 | 16 | -4 | i | 1 | -6
Cc1ccc2nc(SCC(=O)NC3CCCc4ccccc43)[nH]c2c1 (stereo not drawn) | . | -10 | 23 | 23 | -13 | i | -4 | -7
Cc1ccc(NC(=O)CS(=O)(=O)c2c[nH]c3ccccc23)c(C)c1 | 8 | -5 | 0 | 24 | -4 | i | -3 | -4
CC(=O)n1cc([C@@H]2C=C(C(=O)Nc3ccccc3)O[C@H](OCc3ccc(CO)cc3)C2)c2ccccc21 | -16 | -8 | -6 | -64 | -24 | i | -2 | -6
O=C(CSc1n[nH]c(=O)[nH]c1=O)NC1CCCCC1 | -1 | 0 | 10 | 4 | 10 | i | -9 | 0
Cc1ccc(NC(=O)CNC(=O)c2sc3ccccc3c2Cl)nc1 | -14 | . | 3 | -12 | . | i | -3 | 2
CCCN(CCC)S(=O)(=O)c1cc2c(cc1Br)CCN2C(=O)CC | -16 | . | . | 17 | . | . | 3 | -5
O=C(Nc1cccc(C(=O)N2CCCC2)c1)C1CC1 | -9 | . | . | ? | . | . | 4 | 4
COc1cc2c(cc1OC)C(=O)CC(C)S2 (stereo not drawn) | -22 | 4 | . | . | -1 | i | -2 | 5
C=CCOCCN(C)C1=NS(=O)(=O)c2cc([N+](=O)[O-])ccc21 | . | -10 | -16 | -2 | -14 | i | 3 | 1
Cc1ccc(SCc2cc(-c3ccc(Cl)cc3)on2)cc1 | -10 | 3 | 9 | . | -7 | i | 0 | 3
COc1ccccc1CN1CC(C(=O)NCCC2=CCCCC2)CCC1=O (stereo not drawn) | -18 | . | -9 | 5 | . | i | 4 | 4
CC(/C=N/O)Cc1ccc2c(c1)OCO2 (stereo not drawn) | -14 | . | -13 | -7 | . | i | 4 | 7
CC(Sc1nnc(N)s1)c1ccccc1Cl (stereo not drawn) | -23 | 4 | . | -10 | 9 | i | 0 | 1
COc1ccc(NC(=O)CN(C)C(=O)Cn2cnc3c2c(=O)n(C)c(=O)n3C)cc1 | . | . | -8 | -2 | . | i | 2 | -1
Cc1nnc(SC(C)C(=O)Nc2ccc3ccccc3c2)[nH]c1=O (stereo not drawn) | -12 | 3 | 0 | 4 | 1 | i | -4 | 1
COc1ccc(OC)c(NS(=O)(=O)c2ccc(Br)s2)c1 | . | -4 | -6 | . | 3 | i | . | .

An excerpt from the list above, as a working copy:
SMILES | Yeast UUG start | eIF4H FP inh | CSC inhib | Env fusion inh | PABP polyA inh | Rce1 inh | MT1-MMP act inh | MT1-MMP act inh RFP | others
COc1ccc(NC(=O)CN(C)C(=O)Cn2cnc3c2c(=O)n(C)c(=O)n3C)cc1 | . | . | -8 | -2 | . | i | 2 | -1
Cc1nnc(SC(C)C(=O)Nc2ccc3ccccc3c2)[nH]c1=O (stereo not drawn) | -12 | 3 | 0 | 4 | 1 | i | -4 | 1
COc1ccc(OC)c(NS(=O)(=O)c2ccc(Br)s2)c1 | . | -4 | -6 | . | 3 | i | . | .

Carrying on.
SMILES | Yeast UUG start | eIF4H FP inh | CSC inhib | Env fusion inh | PABP polyA inh | Rce1 inh | MT1-MMP act inh | MT1-MMP act inh RFP | others
CCOc1ccc(Oc2nc(Nc3ccc(C)cc3)nc(N(C)C)n2)nn1 | -7 | 2 | -1 | . | 18 | i | -6 | -13
Cn1cc([N+](=O)[O-])c(C(=O)N/N=C/c2ccc3c(c2)OCO3)n1 | . | -7 | -5 | 3 | 6 | i | 1 | 2
COc1ccc(N2C(=S)N=C(Nc3ccccc3)C23CCCCC3)cc1 | . | 4 | -15 | 1 | 3 | i | 0 | 3
O=C(OCC(=O)N1CCOCC1)c1ccc(F)cc1Cl | -18 | -5 | -10 | -11 | 5 | i | -4 | 3
Cc1ccccc1OCC(=O)NCCc1nc2ccccc2[nH]1 | -19 | -3 | -14 | 7 | -4 | i | 2 | 5
O=C(NCSc1ccnc(SCNC(=O)c2ccccc2)n1)c1ccccc1 | -6 | 0 | -6 | . | -1 | i | 4 | 2
O=C(Nc1ccc(F)cc1)Oc1ccc[nH]c1=O | -21 | 3 | 5 | -10 | 1 | i | 4 | 2
C/C(=N/Nc1ccc(C(=O)O)cc1)c1ccc(O)c(O)c1O | . | 105 | -8 | -7 | -5 | i | 7 | 8 | eIF4H FP inh retest=16;PABP polyA inh retest=-5
NNC(=O)c1c(O)c2cccc3c2n(c1=O)CCC3 | -19 | -1 | 5 | 1 | -6 | i | 1 | 6
CC(=O)C(CC(=O)N1CCCC1)C(=O)Nc1ccc(Cl)cc1 (stereo not drawn) | -10 | . | -6 | -2 | . | . | -2 | -1
OC[C@@H](O)[C@@H](O[C@H]1O[C@H](CO)[C@@H](O)[C@H](O)[C@H]1O)[C@H](O)[C@@H](O)CO | -2 | -2 | -10 | . | -6 | i | 1 | 4
CS/C(=N\S(=O)(=O)c1cccs1)Nc1ccc(F)c(Cl)c1 | . | -8 | 0 | -3 | 8 | i | 2 | -3
Cc1ccccc1C(=O)Nc1sc2c(c1C(=O)O)CCC2 | . | -1 | 13 | 12 | 2 | i | 0 | -2
Cc1sc2ncnc(Nc3ccc(N4CCOCC4)cc3)c2c1-c1ccccc1 | . | ? | 23 | 33 | 120* | i | -9 | -8 | PABP polyA inh retest=124*
O=C(OCCNc1ccc(C(F)(F)F)cc1[N+](=O)[O-])c1cc2ccccc2oc1=O | . | ? | 0 | -63 | ? | i | 9 | 0
CC(=O)OC(c1nc2ccccc2c(=O)n1C1CC2(OC1=O)c1ccccc1N1C(=O)C(C)(C)N(O)C12)C(C)C (stereo not drawn) | 2 | 16 | -9 | . | 13 | i | 0 | -7
COc1ccc(OC)c(-c2nn(-c3ccccc3)cc2C(=O)NCC2CCCO2)c1 (stereo not drawn) | -9 | 2 | -1 | 20 | -2 | i | -2 | -1
